UCH37 DUB inh – human UCH37 deubiquitinating enzyme inhibition | inhibition, % (no concentration beside the values) | AID 588478 | hit rate 0.33% among 330,000 | purified proteasome/UCH37, Ub-AMC cleavage fluorescence;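 active = mean of two replicates above 20%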;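 also: 0% = compound-free wells with enzyme and 100% = wells lacking proteasome; stock transfer was 100 nL into about 20 µL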
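Assay system: Proteasome-bound UCH37. Buffer or medium: pH 7.4 Tris-HCl (50 mM) with ovalbumin, ATP-MgCl2, DTT. Incubation: 30 min preincubation with enzyme, 25 min cleavage at room temperature. Measured by: fluorescence, ex 355 nm, em 460 nm. Read-out basis: percent inhibition. Control set: wells without proteasome as full block, compound-free enzyme plus substrate as uninhibited.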
A1 inh – inhibitors of the anti-apoptotic protein A1, read as caspase activation | MEF A1-2A-BIM cells, Caspase-Glo 3/7 luminescence, 3 h; percent of clofoctol response, vehicle zero | caspase activation, % (no concentration beside the values) | hit rate 0.066% among 330,000;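 active = over half of replicate activation scores above 10%, or exactly half above 10 with the replicate mean above 10; inconclusive = replicate mean below 10 yet half the replicates above 10; inactive = over half of replicates below 10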;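 also: wells of about 30 µL received 50 nL stock; many hits fall short of the cut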
E coli growth – blocks Escherichia coli growth | OD600, 23 h; hits give low values | OD600 absorbance (no concentration beside the values) | hit rate 0.21% among 330,000;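 active = OD600 absorbance below the run mean of sample wells minus 3.6 SD, in any replicate, cut at about 0.56 in these data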;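 also: stock transfer was 300 nL into about 60 µL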
Vif TR-FRET – inhibitors of Vif binding to APOBEC3G peptide, primary screen, biochemical, TR-FRET, GST-Vif 1-94, biotin-A3G peptide, dose response retest (AID 1117319); TR-FRET GST-Vif / biotin-A3G peptide binding; higher % means a stronger effect; test concentration not given here; strong numbers were not always called active; hit rate 0.57% among 260,000; one-dose inhibition, %; IC50 in µM for titrated hits;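 active = above the screen mean plus three standard deviations and confirmed in dose response; inconclusive = results disagree or hit not tested in dose response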;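 also: Vif residues 1-94 fused to GST binding biotinylated APOBEC3G peptide 110-148; 0% = full assay without inhibitor and 100% = GST in place of GST-Vif; retest series ran down from 100 µM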
LANA-H2B inh – blocks KSHV LANA binding to histone H2A/H2B; hit rate 0.6% among 320,000; AID 2629; inhibition, % (concentration not given with the values); Q9QR71; cell-free LANA-H2A/H2B peptide, fluorescence polarization; in the data active = inhibition mostly above about 10%, no sharp cut-off; inactive = mostly below about 6.7%;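 also: stock transfer was 7.5 nL into about 10 µL; 0% = median of vehicle wells and 100% = median of positive control wells; one replicate is shown; the record names a cut of 25% in any replicate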
Target sequence (Q9QR71 whole entry, looked up): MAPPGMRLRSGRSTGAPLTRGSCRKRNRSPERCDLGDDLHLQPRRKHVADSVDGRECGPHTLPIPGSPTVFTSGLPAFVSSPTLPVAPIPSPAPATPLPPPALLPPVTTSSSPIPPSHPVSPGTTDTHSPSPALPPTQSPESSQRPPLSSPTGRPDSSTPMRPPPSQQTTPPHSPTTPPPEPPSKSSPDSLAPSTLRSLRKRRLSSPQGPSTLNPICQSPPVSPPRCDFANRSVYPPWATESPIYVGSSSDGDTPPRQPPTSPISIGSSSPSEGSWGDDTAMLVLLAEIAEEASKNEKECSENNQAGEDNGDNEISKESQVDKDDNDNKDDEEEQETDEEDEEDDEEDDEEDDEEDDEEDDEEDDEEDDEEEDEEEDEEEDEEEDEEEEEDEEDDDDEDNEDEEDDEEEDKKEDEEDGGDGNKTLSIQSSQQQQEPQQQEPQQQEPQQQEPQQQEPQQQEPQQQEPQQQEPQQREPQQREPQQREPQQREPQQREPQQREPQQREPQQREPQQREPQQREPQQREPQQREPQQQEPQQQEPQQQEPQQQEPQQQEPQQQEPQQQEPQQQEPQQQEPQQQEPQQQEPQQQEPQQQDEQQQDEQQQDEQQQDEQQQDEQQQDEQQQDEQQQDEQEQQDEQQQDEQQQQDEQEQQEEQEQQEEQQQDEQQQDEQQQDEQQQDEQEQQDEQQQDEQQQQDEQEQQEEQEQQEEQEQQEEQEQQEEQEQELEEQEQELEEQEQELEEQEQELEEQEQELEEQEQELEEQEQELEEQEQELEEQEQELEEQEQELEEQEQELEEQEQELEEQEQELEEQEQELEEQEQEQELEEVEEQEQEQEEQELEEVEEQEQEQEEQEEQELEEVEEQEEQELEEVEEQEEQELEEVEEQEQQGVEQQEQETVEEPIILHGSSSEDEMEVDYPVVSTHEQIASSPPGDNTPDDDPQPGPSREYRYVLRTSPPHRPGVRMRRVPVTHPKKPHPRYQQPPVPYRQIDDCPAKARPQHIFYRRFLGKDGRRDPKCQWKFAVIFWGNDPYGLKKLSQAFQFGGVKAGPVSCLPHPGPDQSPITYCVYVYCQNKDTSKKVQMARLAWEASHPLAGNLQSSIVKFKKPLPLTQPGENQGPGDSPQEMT
HNF4A DNA FP – change in binding of human HNF4 alpha to DNA; hit rate 0.3% among 360,000; HNF4a-FITC DNA binding, fluorescence polarization, 1 h; AID 1224865; activity change, % at 10 µM; in the data active = activity change above about 30%, passing the limit was not always enough;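 also: controls were the assay level and a saturating level of protein; the project sought stronger binding though the title names inhibitors; some compounds called inactive have numbers as strong as hits; positive values seem to mean higher polarization but the record does not say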
B2AR ag – human beta-2 adrenergic receptor agonism by FAP. P07550. Am2.2-beta2AR cells, FAP receptor internalization, flow cytometry; reference of the scale not given here. response, % (concentration not given with the values). hit rate 0.43% among 340,000;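 active = response above a set limit, near 3 SD of response in nonfluorescent compounds, cut at about 42% in these data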;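 also: stock transfer was 100 nL into about 11 µL; a reference agonist was the positive control; negative values mostly stem from fluorescent compounds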
* hit, by the source's call; i = inactive; ? = inconclusive; . = no result given.

SMILES | UCH37 DUB inh | A1 inh | E coli growth | Vif TR-FRET | LANA-H2B inh | HNF4A DNA FP | B2AR ag
O=C(NC(=S)Nc1cccnc1Cl)c1ccc(F)cc1 | 5.3 | -5.1 | 0.69 | . | 1.0 | 0.3 | -5
CC(NC(=O)COC(=O)[C@@H]1CCCN1S(=O)(=O)c1ccccc1F)C12CC3CC(CC(C3)C1)C2 (stereo not given in full) | 1.8 | 0.6 | 0.67 | 3% | -0.4 | -3.6 | -5
CC1CN(Cc2cc(=O)n3ccsc3n2)CC(C)O1 (stereo not given) | -3.5 | -0.1 | 0.72 | 17% | 2.5 | -1.6 | -2
O=C(CCCC(=O)OCC1CCCO1)OCC1CCCO1 (stereo not given) | 0.2 | -1.7 | 0.71 | ? | -0.1 | 3.8 | 4
CN1OC(c2ccccc2)=C(CO)C1c1ccccc1 (stereo not given) | 2.2 | -0.7 | 0.66 | 3% | -5.1 | -1.9 | 12
C=CCSc1nnc(CCc2ccccc2)n1N | 0.9 | . | 0.69 | 3% | . | -4.0 | -4
CCCCCCn1nc(C(=O)N(CC(C)C)c2c(N)n(CCCC)c(=O)[nH]c2=O)c2ccccc2c1=O | 3.9 | 1.9 | 0.69 | -4% | -2.3 | 3.0 | 5
CCOc1ccc2sc(NS(=O)(=O)c3ccc(N)cc3)nc2c1 | 4.2 | -0.9 | 0.76 | 12% | 0.1 | 2.5 | -1
O=C(Oc1ccccc1N1CCOCC1)c1sccc1Br | 1.8 | 0.9 | 0.68 | -10% | 11 | 1.7 | -4
COc1ccc(C(=O)C2CCCN(C(=O)CCc3scnc3C)C2)c(C)c1 (stereo not given) | 2.9 | -0.1 | 0.68 | -3% | 2.7 | -4.9 | 3
CCNC(=S)Nc1nc2c(cc1C(=O)OCC)CCCC2 | 2.1 | -0.4 | 0.69 | . | -4.0 | -0.7 | -12
COCCn1c(SCC(=O)Nc2nc(C)cs2)nnc1C(C)C | 0.8 | -0.2 | 0.68 | 4% | -4.2 | -0.4 | -8
O=C(CC1NCCNC1=O)Nc1ccccc1 (stereo not given) | 3.3 | -0.4 | 0.66 | 20% | -3.7 | 0.7 | 3
Clc1ccc(-c2cc(COc3ccc4ccccc4c3)no2)cc1 | -3.3 | -0.9 | 0.79 | -3% | -4.1 | -7.7 | 0
Cc1ccc(C(=O)NNC(=O)c2nn(-c3ccc(F)cc3)ccc2=O)cc1 | 5.1 | 0.9 | 0.64 | . | 4.0 | -1.0 | -8
COc1ccc(S(=O)(=O)Nc2c(C)n(C)n(-c3ccccc3)c2=O)cc1Br | 4.5 | 0.3 | 0.68 | 3% | -2.7 | -0.3 | -1
Cn1ncc(C#N)c1/N=C/N1CCOCC1 | . | -0.6 | . | 5% | 4.7 | 0.5 | 4
O=C(NCc1ccccc1Cl)C1CCC(CNc2nc(=S)[nH]c3ccccc23)CC1 (stereo not given) | -0.9 | -0.4 | 0.73 | . | . | 0.5 | -7
CC(C)c1ccc(N2C(=NC(=O)C3CC3)SC3CS(=O)(=O)CC32)cc1 (stereo not given) | 4.7 | -0.1 | 0.68 | 2% | 7.8 | 4.0 | -4
COc1ccccc1C(C)N(C)Cc1nc(COc2ccccc2)no1 (stereo not given) | 2.2 | 0.8 | 0.73 | . | -0.2 | 1.3 | -2
O=C(O)CCN1/C(=C/C=Nc2ccccc2)Oc2ccccc21 | 10 | -0.2 | 0.78 | 21% | -0.2 | 8.7 | -9
Cc1ccc([N+](=O)[O-])cc1NC(=O)Nc1cccc(F)c1 | . | . | . | -7% | . | 0.5 | 9
Cc1ccc(NC(=S)N(CCN2CCCCC2)Cc2ccco2)cc1 | 0.4 | 0.2 | 0.67 | . | -3.6 | -2.0 | 1
O=C1Nc2cc(Br)ccc2C1(O)c1ccccc1O (stereo not given) | 3.5 | -0.9 | 0.7 | -8% | -5.0 | 0.7 | 5
CC(=O)Nc1ccccc1S(=O)(=O)CC1CC1(Cl)Cl (stereo not given) | -2.2 | 0.5 | 0.65 | 5% | 4.5 | -0.7 | 5
CN(C)C(CNC(=O)CCc1nc2sc3c(c2c(=O)[nH]1)CCCC3)c1ccccc1 (stereo not given) | -0.7 | 0.1 | 0.7 | 2% | -2.8 | 1.7 | -7
COc1ccc(N2CCN(C(=O)CCCSc3nc4ccccc4[nH]3)CC2)cc1 | 1.0 | 0.3 | 0.7 | 9% | -0.5 | -0.1 | 11
CCN(CC)C(=O)Oc1nnc(SC(C)C)n1-c1ccc(Cl)cc1 | 4.1 | -0.5 | 0.67 | -1% | 4.0 | 2.6 | -7
N#Cc1ccccc1NC(=O)c1ccc2c(c1)OCO2 | . | 0.9 | . | -3% | -3.6 | -0.5 | -1
COc1ccc2c(N)c(C(=O)NN)[nH]c2c1 | -18 | 0.0 | 0.63 | -1% | 1.7 | 0.0 | 2
COc1ccc(O)c(/C=N/NC(=O)c2cccc(N3CCCC3=O)c2)c1 | . | -1.0 | . | . | 1.5 | 1.0 | 5
C/C(=N\NC(=O)c1cc(-c2ccc(C)s2)[nH]n1)c1ccco1 | . | -1.0 | . | 2% | -4.6 | 1.7 | 5
CCCN(Cc1cc2ccc(C)cc2[nH]c1=O)C(=O)c1cccnc1 | -5.7 | 0.5 | 0.74 | 3% | -2.5 | 8.3 | 4
CC1(C)Cc2c(cnn2-c2ccc(F)cc2)C(NC(=O)CCc2ccncc2)C1 (stereo not given) | 1.1 | . | 0.71 | . | . | -1.1 | -3
COc1ccc(C(=O)/C(=C\c2sccc2C)c2nc3ccccc3o2)cc1 | 0.1 | -0.4 | 0.71 | 19% | 3.7 | . | .
Nc1c(C(=O)C2CC2)sc2nc(-c3cccs3)cc(C(F)(F)F)c12 | -17 | -0.5 | 0.76 | -2% | -2.2 | -53 | i
COc1ccc(OCc2nc3ccccc3n2C(C)C)cc1 | 5.6 | 0.4 | 0.72 | . | 2.8 | -1.8 | -6
O=C(Cn1cnc2c(cnn2-c2ccccc2)c1=O)c1ccc(Cl)cc1 | 5.1 | -0.1 | 0.68 | -2% | 3.3 | -0.1 | -2
Cn1c(-c2ccccc2)cnc1SCC(=O)NCc1ccco1 | -1.1 | 0.4 | 0.7 | ? | -1.7 | 1.9 | 7
Cc1cc(C)n(-c2ccc(NC(=O)C3CCCCN3Cc3cccc4c3OCO4)cc2)n1 (stereo not given) | -1.3 | . | 0.69 | -3% | . | -0.4 | -4
C#CCNC(=O)C1=C[C@@H](c2ccc(Br)cc2)C[C@@H](OCCCCO)O1 | -1.9 | 0.9 | . | . | -2.0 | -2.2 | -8
O=C1CCCC1C(=O)Nc1ccc2ccccc2c1 (stereo not given) | 1.9 | -1.0 | 0.67 | 29% | -4.7 | 1.6 | 4
COc1cccc(N2CCN(S(=O)(=O)c3ccc4c(c3)NC(=O)C(C)C(=O)N4)CC2)c1 (stereo not given) | 1.6 | -0.3 | 0.7 | -9% | -1.6 | 0.4 | 1
CCOC(=O)c1ccc(NC(=S)N2CCN(CCNC3=CC(=O)CC(C)(C)C3)CC2)cc1 | 1.9 | -0.4 | 0.66 | . | -1.7 | -0.6 | -9
O=C(Cc1cccs1)NCc1cccc(Br)c1 | 3.4 | -0.3 | 0.66 | -2% | -1.8 | -0.3 | 7
COc1ccc(S(=O)(=O)NCC2CCC(C(=O)NCCCN3CCCC3=O)CC2)cc1 (stereo not given) | 1.6 | 0.4 | 0.66 | 0% | 2.0 | -0.1 | 4
CCCOC(=O)C1=C(C)OC23OC(N)=C(C#N)C12C(=O)c1ccccc13 (stereo not given) | -0.5 | -0.7 | 0.66 | -5% | 5.8 | 3.1 | -2
COc1ccc(NC(=O)C2CCN(S(=O)(=O)c3cccc4cccnc34)CC2)cc1 | 8.1 | 1.5 | 0.75 | -13% | 0.8 | 1.8 | -15
COc1ccc(CNC(=O)N2CCN(S(=O)(=O)c3ccccc3F)CC2)cc1 | 3.2 | 0.3 | 0.65 | -3% | -1.3 | -1.6 | 3
CC(C)(C)c1ccc(C(=O)Nc2sc3c(c2C(=O)O)CCC3)cc1 | -13 | 0.0 | 0.66 | . | 1.4 | -2.7 | 6

The last five entries of the section above lead into the next:
SMILES | UCH37 DUB inh | A1 inh | E coli growth | Vif TR-FRET | LANA-H2B inh | HNF4A DNA FP | B2AR ag
COc1ccc(S(=O)(=O)NCC2CCC(C(=O)NCCCN3CCCC3=O)CC2)cc1 (stereo not given) | 1.6 | 0.4 | 0.66 | 0% | 2.0 | -0.1 | 4
CCCOC(=O)C1=C(C)OC23OC(N)=C(C#N)C12C(=O)c1ccccc13 (stereo not given) | -0.5 | -0.7 | 0.66 | -5% | 5.8 | 3.1 | -2
COc1ccc(NC(=O)C2CCN(S(=O)(=O)c3cccc4cccnc34)CC2)cc1 | 8.1 | 1.5 | 0.75 | -13% | 0.8 | 1.8 | -15
COc1ccc(CNC(=O)N2CCN(S(=O)(=O)c3ccccc3F)CC2)cc1 | 3.2 | 0.3 | 0.65 | -3% | -1.3 | -1.6 | 3
CC(C)(C)c1ccc(C(=O)Nc2sc3c(c2C(=O)O)CCC3)cc1 | -13 | 0.0 | 0.66 | . | 1.4 | -2.7 | 6
Cc1nc2ccc(NC3=NCCCCC3)cc2s1 | -0.6 | 0.3 | 0.7 | 17% | 5.9 | -3.5 | -2
O=C(CCN1C(=O)/C(=C/c2ccccc2Cl)SC1=S)NC1C=CS(=O)(=O)C1 (stereo not given) | 4.5 | -1.3 | 0.73 | . | 0.7 | 4.2 | -3
CC1(C(=O)O)Oc2cccnc2NC1=O (stereo not given) | 0.7 | 0.0 | 0.67 | 4% | -1.2 | 0.8 | 3
Cc1ccc2cc(C=O)c(Cl)nc2c1 | -3.0 | 0.4 | 0.65 | -3% | -7.4 | 0.5 | 10
Oc1ccc(CN2CCCCC2)nc1-c1ccccc1 | -33 | 0.2 | 0.71 | -4% | 0.4 | 3.2 | 2
CCOC(=O)C1(Cc2ccc(Cl)cc2)CCN(CCCn2cccn2)CC1 | 1.0 | 0.3 | 0.63 | -1% | -1.1 | -0.5 | 7
Cc1ccc(C2SCC(=O)N2Cc2cn3ccsc3n2)o1 (stereo not given) | 4.2 | -0.1 | 0.77 | >100µM* | -11 | 2.6 | 21
O=C(c1ccc(F)c(S(=O)(=O)N2CCOCC2)c1)N(CCc1ccccc1)Cc1ccccc1 | 0.1 | 1.2 | 0.7 | -1% | -10 | 1.6 | -3
COc1ccc(Cl)cc1NC(=O)CN(C(=O)c1ccco1)C1CCCCC1 | 1.5 | 0.1 | 0.7 | 6% | -5.8 | -4.9 | -9
c1cc2cn[nH]c2cc1NC1CCCCCC1 | -6.0 | 0.7 | 0.68 | 13% | -2.8 | -2.6 | -4
CCOC1C(=O)NC(=O)N1Cc1ccccc1 (stereo not given) | -1.0 | 0.3 | 0.67 | -3% | -5.7 | 2.0 | -1
Cc1ccc(NC(=O)CSc2nnc3c(n2)[nH]c2ccccc23)cc1 | -0.3 | 0.2 | 0.63 | 3% | 2.2 | 5.8 | 0
COc1ccc(C(=O)CN2CCN(S(=O)(=O)c3cccc([N+](=O)[O-])c3)CC2)cc1 | 7.4 | 1.4 | 0.67 | . | -0.4 | 6.4 | 2
COc1ccccc1Cc1nc(-c2cccnc2)no1 | 4.5 | 1.5 | 0.65 | 1% | 1.4 | -1.1 | -3
CC(C)(C)NC(=O)CON=C1c2ccccc2-c2ccccc21 | -2.8 | 0.6 | 0.7 | 6% | -4.0 | 1.9 | -3
Cc1ccc(C(=O)Nc2cc(=O)n(C)c(=O)n2C)cc1C | 8.3 | . | 0.72 | -2% | . | -0.5 | 2

High-throughput results from PubChem.
